MT1-MMP promoter: inhibitors of MT1-MMP promoter transcription, cell-based, luciferase reporter, luminescence (AID 618) | MT1-MMP promoter luciferase reporter cells, luminescence | calls from a first round at 10 µM; hits with a dose series show EC50 in µM | 87,000 tested, 0.62% active;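 active means over half of the reporter light lost at 10 µM or EC50 under 50 µM; inactive means the rest and hits that failed the dose series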;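 further: actives suppress MT1-MMP promoter-driven transcription so potencies describe inhibitors; HT1080 fibrosarcoma cells; overnight exposure; toxic or luciferase-blocking compounds were not removed from the actives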
WNV NS2B-NS3 inh: blocks West Nile virus NS2B-NS3 protease activity; P06935; WNV NS2B-NS3 protease, fluorogenic substrate Ex360/Em465; hits give low values; z-score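 (tested at a level between 10 and 100 µM)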; 65,000 tested, 0.18% active;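 active means z-score at -3 or under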;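 further: score is relative to mean and spread of the compound wells of a plate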
Target sequence (P06935 1371-1501 limits assumed): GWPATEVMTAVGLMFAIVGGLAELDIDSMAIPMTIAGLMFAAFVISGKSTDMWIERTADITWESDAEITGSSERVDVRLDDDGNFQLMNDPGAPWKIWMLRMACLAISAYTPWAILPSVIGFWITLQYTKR
Target sequence (P06935 1502-1679 limits assumed): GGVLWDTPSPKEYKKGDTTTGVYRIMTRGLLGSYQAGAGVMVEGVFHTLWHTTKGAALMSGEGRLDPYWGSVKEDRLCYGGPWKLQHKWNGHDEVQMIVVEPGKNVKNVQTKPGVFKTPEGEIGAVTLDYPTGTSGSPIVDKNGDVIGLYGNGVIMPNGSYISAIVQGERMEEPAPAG
Hsc70 ATP site: small molecules displacing fluorescent ligand from Hsc70 – biochemical, fluorescence polarization, primary screen (AID 568); Hsc70 fluorescence polarization, probe displacement; higher % means a stronger effect; strong numbers were not always called active; displacement, % at 20 µM; hits with a dose series show IC50 in µM; 83,000 tested, under 10 active;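 active means displacement above 50% without optical interference and an IC50 on retest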;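 further: ATPase domain with a fluorescein-tagged ATP probe; 0% = vehicle and 100% = excess ADP; read after one hour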
Active calls of the source: *; i = inactive; nt = not tested or not shown. Only part of the results is shown, so the mix of outcomes need not match the whole.

canonical_smiles | MT1-MMP promoter | WNV NS2B-NS3 inh | Hsc70 ATP site
O=C(Nc1scc(-c2cccs2)c1C(=O)O)c1cccs1 | i | -1.2 | 0.4%
CCOC(=O)Nc1ccc(NS(=O)(=O)c2ccc(C)cc2)cc1 | i | -0.0057 | 2.1%
O=C(NC1(C(F)(F)F)Oc2ccccc2O1)N1CCCC1 | i | -0.37 | 4.2%
COc1ccccc1OCC(=O)Nc1nnc(-c2ccco2)s1 | i | 0.22 | -3.2%
CN1CCCCCC1=Nc1ccccc1C#N | i | 0.44 | -7.1%
CCC(C)(C)NC(=O)c1ccc2c(c1)N(CC(=O)OC)C(=O)C(C)(C)O2 | i | -2 | 1.6%
CCOC(=O)C(O)(NC(=O)c1cccnc1)C(F)(F)F (stereo unspecified) | i | -0.97 | -1.6%
CC1(C)Oc2ccc3ccc(=O)oc3c2C(N2CCCCC2)C1O (stereo unspecified) | i | 0.27 | -6.9%
CCOC(=O)c1ccc(S(=O)(=O)NC2CCCCCCC2)n1C | i | -0.02 | 3.7%
c1ccc(CN2CN=C(Nc3nc4ccccc4s3)NC2)cc1 | i | nt | 0.7%
CCOC(=O)N1CCN(C(=O)C2CCC(=O)N2C(C)C)CC1 (stereo unspecified) | i | -0.66 | -1.5%
Cc1ccc(-n2nnnc2SCC(=O)N2CCc3ccccc3C2)cc1 | i | -0.96 | 0.9%
N#CCCNc1ccc(OCCC#N)cc1 | i | 0.16 | -0.6%
Cc1ccc(-n2c(CSc3nc(C)cc(C)n3)nnc2SCC(=O)N2CCCC2)cc1 | i | 1.5 | 2.9%
COc1cccc(COc2nc3c(c(=O)n(C)c(=O)n3C)n2C)c1 | i | 0.26 | 4.1%
COc1ccc(S(=O)(=O)N2CCC(C(=O)NCC(c3cccs3)N(C)C)CC2)cc1 (stereo unspecified) | i | 0.14 | 1.0%
COc1cccc(C(=O)CSc2nc3ccccc3n2CC(=O)N(C(C)C)C(C)C)c1 | i | nt | 1.3%
O=C(NC1(C(F)(F)F)NC(=O)N(Cc2ccccc2)C1=O)c1cccs1 (stereo unspecified) | i | nt | 3.2%
COc1ccc(C(c2sc3nc(C)nn3c2O)N2CCN(Cc3ccccc3)CC2)cc1OC (stereo unspecified) | i | -0.76 | 12%
Cc1cc(C(=O)Nc2ccc(S(=O)(=O)Nc3nccs3)cc2)c(C)o1 | i | -0.25 | 0.8%
CCc1ccc(-c2nc(CN3CCC(C(=O)NCc4ccccc4OC)CC3)c(C)o2)cc1 | i | -0.39 | -4.2%
CCOC(=O)N1CCN(S(=O)(=O)c2cc(Br)cnc2N)CC1 | i | 0.73 | -4.0%
CC1Cc2cc(/C(O)=C3\C(=O)C(=O)N(CCN(C)C)C3c3ccccc3F)ccc2O1 (stereo unspecified) | i | -0.31 | 2.8%
O=[n+]1c2c(n([O-])c3ccccc31)CCC2 | i | nt | -1.4%
COc1cc(S(=O)(=O)N2CCCCCC2)c(OC)cc1Br | i | -0.47 | 1.9%
CN(C)C=Nc1ccc2nn(-c3ccccc3)nc2c1 | i | 2.3 | 3.0%
COc1ccc(N(CC(=O)NCCC2=CCCCC2)S(C)(=O)=O)cc1OC | i | nt | 1.6%
Cn1nc(OCc2ccccc2)ccc1=O | i | -0.4 | -1.3%
COc1cccc(C(=O)N(Cc2nc(-c3ccc(C)cc3)no2)C(C)C)c1 | i | 0.36 | -2.8%
O=C(CN1C(=O)CC(c2ccco2)Sc2ccccc21)Nc1ccccc1F (stereo unspecified) | i | -0.03 | -5.1%
O=C(NCc1n[nH]c(=S)n1-c1ccc(F)cc1)c1ccco1 | i | 0.02 | -2.7%
CCOc1ccc(C(=O)NCCCN2CCCC2=O)cc1 | i | nt | -1.4%
CCCCCOc1ccc(OC(=O)c2ccncc2)cc1 | i | 1.4 | -0.8%
O=S(=O)(NCCc1ccncc1)c1ccc(S(=O)(=O)N2CCCCCC2)cc1 | i | 0.95 | 6.2%
COc1ccccc1NC(=O)C1CC(=O)N(c2ccc(F)cc2)C1 (stereo unspecified) | i | 0.8 | 1.7%
CCS(=O)(=O)N1CCC(C(=O)NCCN2CCOCC2)CC1 | i | nt | 2.4%
Cc1ccc(-c2csc(NC(=O)CSc3ncn(-c4ccccc4)n3)n2)cc1 | i | -0.76 | -11%
COc1ccc(N2CCN(C(=O)CSc3nnc(C)c(=O)[nH]3)CC2)cc1 | i | 0.59 | -3.2%
Cc1c(NC(=O)c2cc3nc(-c4ccccc4)cc(C)n3n2)c(=O)n(-c2ccccc2)n1C | i | -0.43 | -1.1%
COc1ccccc1NC(=O)NCCN1C(=O)C2C3C=CC(C3)C2C1=O (stereo unspecified) | i | -0.51 | 5.8%
O=C(CSc1nnc(Cc2csc(Nc3cccc(Cl)c3)n2)o1)N1CCc2ccccc21 | i | -0.39 | -7.9%
CCOC(=O)c1c(CN2CCN(C)CC2)oc2ccc(O)cc12 | i | -0.15 | -4.2%
CCOC(=O)C1=C(O)C(=O)N(c2ccc(S(N)(=O)=O)cc2)C1c1ccc(Cl)cc1 (stereo unspecified) | i | nt | 4.1%
CC(/C=C/c1ccccc1)=N/NC(=O)c1cnccn1 | i | nt | -4.2%
O=C(NC1CCCCC1)N(CCN1CCOCC1)Cc1cc2cc3c(cc2[nH]c1=O)OCCO3 | i | 0.75 | -4.6%
CN(C)c1oc(-c2ccc(OCc3ccccc3)cc2)nc1C#N | i | -0.21 | -4.1%
COC(=O)C1=C(C)Nc2nnnn2C1c1ccccc1Cl (stereo unspecified) | i | nt | -0.6%
COc1ccccc1NC(=O)Cn1cnc2c(cnn2-c2ccccc2)c1=O | i | -0.001 | 3.6%
N#Cc1cc2c(nc1SCC(=O)N1CCOCC1)CCCCC2 | i | nt | 6.1%
CC(C)Nc1nc(C#N)nc(NC(C)C)n1 | i | 0.7 | 1.3%
O=C(CC1C(=O)N(c2ccccc2)C(=O)N1C1CCCCC1)Nc1ccccc1 (stereo unspecified) | i | nt | -2.2%
N#CC12CCCCC1CC1CCCCC1(C#N)N2CCO (stereo unspecified) | i | 1.5 | -3.2%
O=C(NCC1CCCO1)c1ccc(S(=O)(=O)N2CCC(c3nc4ccc(Cl)cc4[nH]3)CC2)cc1 (stereo unspecified) | i | nt | -1.3%
CCCn1nnc(NC(=O)c2ccc(-c3cccc(Cl)c3)o2)n1 | i | nt | -4.2%
CCn1c2ccc(Cl)cc2c2nc3ccccc3nc21 | i | nt | -4.4%
Clc1ccc(Oc2nc(N3CCOCC3)nc(N3CCOCC3)n2)c(C2CCCCC2)c1 | i | 0.44 | -7.0%

(next part)
canonical_smiles | MT1-MMP promoter | WNV NS2B-NS3 inh | Hsc70 ATP site
CCCn1c(N)c(C(c2ccc(C(=O)OC)cc2)N2CCN(c3ccccc3)CC2)c(=O)[nH]c1=O (stereo unspecified) | i | -0.67 | 2.2%
COC(=O)c1ccc(/C=N\n2c(C)nnc2C)cc1 | i | 1.5 | -2.0%
CN(C)c1cc(N)c2ccccc2n1 (tested in a mixture with another compound) | i | -0.9 | -6.2%
Cc1ccc(C(C)C)c(OCc2nc(-c3nonc3N)no2)c1 | i | 1.6 | 3.2%
CC1(C)CC(=O)C=C(NCCCNC2CCCCC2)C1 | i | -0.37 | 3.3%
CCOc1ccc(NC(=O)CN2CCN(CC(=O)Nc3ccc(OC)cc3)CC2)cc1 | i | nt | 4.1%
CCOC(=O)c1c(NC(=O)Cn2nnc(-c3ccccc3Cl)n2)sc(C)c1C | i | nt | 5.4%
Cc1cccnc1-n1c(CCN2C(=O)c3ccccc3C2=O)nc2ccccc2c1=O | i | 0.33 | 14%
COc1cc(N2C(=O)CSC23C(=O)Nc2ccccc23)cc(OC)c1OC (stereo unspecified) | i | 0.31 | 7.0%
COc1ccc(C)cc1S(=O)(=O)N(C)CC(=O)Nc1ccc2c(c1)OCCO2 | i | -0.74 | -0.1%
O=C(c1ccc(-c2ccccc2)cc1)N1CCC(C(=O)N2CCCC2)CC1 | i | -0.09 | 7.0%
CN(C)c1ccc(/C=c2\sc3nc(-c4ccccc4)nn3c2=O)cc1 | i | -0.33 | -24%
Cn1c(=O)c(C#N)c(-c2ccccc2)n2cnnc12 | i | -0.49 | 0.2%
CCS(=O)(=O)N1CCC(C(=O)Nc2cc(Cl)ccc2O)CC1 | i | 0.92 | -2.6%
COc1cc(C=C(C(C)=O)C(C)=O)ccc1O | i | nt | 7.4%
Cc1ccc2[nH]c3c(=O)n(CCN4CCOCC4)cnc3c2c1 | i | nt | -0.3%
CCSc1nc2sc3c(c2c(=O)[nH]1)CCCC3 | i | nt | -1.8%
CCOC(=O)c1cnn2c(C(F)(F)F)cc(-c3cn(C)nc3C)nc12 | i | 1.4 | -6.1%
CCOC(=O)C1CCCN(C(=O)C2CCCN(S(=O)(=O)c3ccc4c(c3)oc(=O)n4C)C2)C1 (stereo unspecified) | i | -0.18 | -1.9%
COc1cccc(OC)c1C(=O)NCCN1CCN(C(=O)c2c(OC)cccc2OC)CC1 | i | -0.41 | -1.5%
COCCn1nnnc1C(c1cccc(C(F)(F)F)c1)N1CCOCC1 (stereo unspecified) | i | nt | 1.5%
O=C(CSc1nnc(CNc2ccccc2)o1)N1CCCc2ccccc21 | i | 1.4 | -0.8%
O=C(Nc1ccc2oc(-c3ccccc3)nc2c1)c1ccncc1 | i | -0.79 | 3.8%
Clc1ccc(-c2noc(COc3ccccc3)n2)cc1 | i | 1.6 | 1.8%
CCN(CC)CCN1C(=O)c2oc3ccc(F)cc3c(=O)c2C1c1ccncc1 (stereo unspecified) | i | -0.4 | -2.3%
CCC(C)[C@H](NC(=O)Nc1ccc(Oc2ccccc2)cc1)C(=O)O (stereo partly specified) | i | nt | 2.2%
Cc1ccc(S(=O)(=O)NCCCNS(C)(=O)=O)cc1 | i | -0.6 | -3.3%
CS(=O)(=O)Nc1ccc2c3c(cccc13)CC2 | i | -0.33 | -5.3%
COc1ccc2nc(NC(=O)c3ccc(Br)s3)sc2c1 | i | -0.76 | -3.1%
COC(=O)c1scc(C)c1N/N=C(\C)c1ccc(F)cc1 | i | nt | -2.1%
CCOC(=O)CN=C1CC(C)(C)CC2=C1Sc1ncnc(N(C)C)c1N2 | i | -0.58 | 2.9%
Cn1cccc1C(=S)N1CCOCC1 | i | -0.02 | -0.5%

Molecules listed so far containing a furan ring, fused or not:
canonical_smiles | MT1-MMP promoter | WNV NS2B-NS3 inh | Hsc70 ATP site
COc1ccccc1OCC(=O)Nc1nnc(-c2ccco2)s1 | i | 0.22 | -3.2%
Cc1cc(C(=O)Nc2ccc(S(=O)(=O)Nc3nccs3)cc2)c(C)o1 | i | -0.25 | 0.8%
O=C(CN1C(=O)CC(c2ccco2)Sc2ccccc21)Nc1ccccc1F (stereo unspecified) | i | -0.03 | -5.1%
O=C(NCc1n[nH]c(=S)n1-c1ccc(F)cc1)c1ccco1 | i | 0.02 | -2.7%
CCOC(=O)c1c(CN2CCN(C)CC2)oc2ccc(O)cc12 | i | -0.15 | -4.2%
CCCn1nnc(NC(=O)c2ccc(-c3cccc(Cl)c3)o2)n1 | i | nt | -4.2%

Continued.
canonical_smiles | MT1-MMP promoter | WNV NS2B-NS3 inh | Hsc70 ATP site
Cc1ccc(N2CCCn3c2cc(C)c(C#N)c3=O)cc1Cl | i | nt | 2.5%
Cc1ccc(NC(=O)NC2=N/C(=C(/C#N)C(=O)N3CCCC3)c3ccccc32)cc1 | i | -1.1 | -4.6%
Cc1cccc(N2CCN(S(=O)(=O)c3ccc4c(c3)n(C)c(=O)c(=O)n4C)CC2C)c1 (stereo unspecified) | i | 1.2 | 4.2%
O=C(Cc1ccc(F)cc1)Nc1c2c(nn1-c1cccc(Cl)c1)CS(=O)C2 (stereo unspecified) | i | 1.1 | 1.2%
CC(C)N1C(=O)CCC1C(=O)N1CCC(Cc2ccccc2)CC1 (stereo unspecified) | i | -0.73 | 4.1%
Cc1cc(=O)[nH]c(Nc2c(C)n(C)n(-c3ccccc3)c2=O)n1 | i | -1.2 | 8.2%
Cc1nn(CC(=O)Nc2nnc(CC(=O)N3CCCC3)s2)c(=O)c2ccccc12 | i | -0.2 | -4.3%
CCn1c(CSc2nc3ccccc3s2)nnc1SCC(=O)c1ccc2c(c1)OCCO2 | i | -0.59 | 7.5%
CCOCCOC(=O)C(C)Sc1n[nH]c(=O)[nH]c1=O (stereo unspecified) | i | 1.4 | -1.3%
CCCC(c1nnnn1CC(=O)OCC)N(Cc1cc2c(C)cc(C)cc2[nH]c1=O)C1CCCC1 (stereo unspecified) | i | -0.6 | -7.7%
CC12COC3(C(=O)Nc4nccs4)CC1CCC32C (stereo unspecified) | i | nt | -1.2%
Cc1ccc(-c2nn(CC(=O)NCCN3CCOCC3)c(=O)c3ccccc23)cc1 | i | 0.06 | 6.0%
CSC1CCCCC1(O)CSc1nc2c(cc1C#N)CCCC2 (stereo unspecified) | i | 0.39 | 7.1%
O=C(Nc1ccc(-n2cnnn2)cc1)C1CCCCC1 | i | nt | -4.1%
CCCn1c(NCc2cccc(OC)c2OC)nc2ccccc21 | i | 0.71 | 2.4%
Cc1ccc(/C=N/n2cnnc2)s1 | i | nt | -2.2%
COc1ccc(NC2c3ccccc3C(=O)N2Cc2ccco2)cc1OC (stereo unspecified) | i | 2.4 | -2.7%
CCOc1ccccc1-c1cc(-c2ccccc2)nc2c1c(=O)n(C)c(=O)n2C | i | nt | -1.4%
CCCCCNc1nc2ccccc2nc1NS(=O)(=O)c1cccs1 | i | nt | 0.6%

High-throughput results: PubChem, several laboratories
